Bioassay records (PubChem)
RE007 growth inh: less growth of the S. pombe RE007 Vpr strain; hit rate 0.21% among 360,000; Potency, µM (series often up to 92.2 µM), for inactives: at the top dose activity change, negative = less growth; S. pombe RE007 Vpr strain, BacTiter-Glo ATP luminescence, 24 h; control for the full effect not named in the record; active = well fitted falling curve with a large enough effect; inconclusive = small, poorly fitted or top-dose-only effect; inactive = no such curve, though single readings can be large or run the other way;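 also: nearly all actives have a fitted effect of over 50% in size; the assay follows cell death caused by Vpr and the record does not say whether a fall means rescue or toxicity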
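Fission yeast RE007 carrying one integrated HIV-1 vpr copy, seeded at OD 0.01 in PMG+AL medium with 23 nL pinned compound. Grown 24 h at 30 degrees; viability read by BacTiter-Glo luminescence after 5 min.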
StopGo reporter: FMDV 2A StopGo reporter, luciferase signal; human cells with a luciferase reporter of 2A StopGo recoding; control for the full effect not named in the record; Potency, µM (top dose mostly 57.9 µM), for the others: at the highest dose signal change, negative = less light; hit rate 1.2% among 410,000; AID 1159524; active = well fitted falling curve with a large enough effect; inconclusive = small, poorly fitted or top-dose-only effect; inactive = no such curve, though single readings can be large or run the other way; tested in HEK293T cells; also: nearly all actives have a fitted effect of over 45% in size; luciferase light after 4 h
Starred values were filed as active, the others as inactive; ? = inconclusive; [ ] = another dose, or the depositor's remark. % is scaled to controls: 0 for no effect and ±100 for the full control effect; potency is read from the fitted curve at half-maximal effect.

SMILES | RE007 growth inh | StopGo reporter
Cc1ccc(S(=O)(=O)N2C[C@H]3[C@H]4C(=O)N(c5ccccc5)C(=O)[C@H]4C[C@H](OC(=O)NC4CCCC4)[C@@]3(O)C2)cc1 | 4% | ?
CCCCC(=O)N1C(C)CCC1C (stereo not drawn) | 6% | -6%
Cc1ccc(S(=O)(=O)NC(=O)C2(C)CCN2C(=O)c2c(C)noc2C)cc1 (stereo not drawn) | 13% | 49%[activator]
COc1ccc(NS(=O)(=O)c2ccc(-c3ccccn3)s2)cc1 | -7% | 17%
Cc1cc(N2CCN(C(=O)Oc3ccc([N+](=O)[O-])cc3)CC2)c2ccccc2n1 | ? | 25µM*
COCC(=O)N(C)C[C@H]1Oc2ncc(C#C[C@H](C)O)cc2C(=O)N([C@@H](C)CO)C[C@H]1C | 5% | -9%
Cn1nccc1-c1ccc(C(=O)Nc2cccc(NS(C)(=O)=O)c2)c2occc12 | 0% | ?
CCCc1c(-c2cccc(Cl)c2)ncn1Cc1ccccc1OC | -24% | ?
C[C@@H]1CN([C@@H](C)CO)C(=O)c2cc(NC(=O)Nc3cccc4ccccc34)ccc2O[C@@H](C)CCCCO[C@H]1CN(C)C(=O)c1ccccc1 | 2% | ?
COc1ccc(C(=O)C(=NN)c2ccccc2)cc1 | -14% | 52%[activator]
O=C(NC1CCCCCC1)c1[nH]c(C(F)(F)F)nc1-c1ccccc1 | 9% | -12%
CN(Cc1cn(Cc2ccc(F)cc2)nn1)C1CN(Cc2cn(Cc3ccc(F)cc3)nn2)S(=O)(=O)C1 (stereo not drawn) | -8% | -22%
CC(=O)c1ccc(NC(=O)CN2CCN(S(=O)(=O)c3ccc4c(c3)OCCO4)CC2)cc1 | -11% | -11%
C(=C\c1ccccc1)/CN1CCN(C(c2cccc3ccccc23)c2nnnn2Cc2ccccc2)CC1 (stereo not drawn) | -17% | -9%
CC(C)Oc1ccc(CN2CCC2(C)C(=O)Nc2ccc3c(c2)OCO3)cc1 (stereo not drawn) | 22%[18.4 µM] | -23%
O=C(Nc1cccc(Cl)c1)c1ccc2sc([C@H]3C[C@H](O)[C@@H](CO)O3)nc2c1 | -1% | -27%
COCc1ccc(C(=O)N2CCCC(N3CCN(c4cccc(Cl)c4)CC3)C2)s1 (stereo not drawn) | -9% | -25%
Cc1cccc(C(=O)OCC(=O)N2c3ccccc3CC2C)c1C (stereo not drawn) | 5% | 0%
O=c1ccc2cc(OC3O[C@H](CO)[C@@H](O)[C@H](O)[C@H]3O)c(O)cc2o1 (stereo partly drawn) | -1%[18.4 µM] | -9%
c1ccc(Oc2ccccc2-c2cc(NCCc3cccnc3)n3nccc3n2)cc1 | 1% | 0%
COc1ccc([C@H]2/C=C\CN(S(=O)(=O)c3ccc4ccccc4c3)[C@@H](C)C(=O)N2Cc2ccc(F)cc2)cc1 | -3% | 7%
CC1(Oc2ccccc2-c2ccn[nH]2)CCN(Cc2ccc(OC(F)(F)F)cc2)C1 (stereo not drawn) | -23% | ?
OC(c1ccccc1)(c1nc(-c2cccc(F)c2)cs1)C(F)(F)F (stereo not drawn) | -1% | 17%
CC(=O)Nc1ccc(-c2ccnc3c2CC(C(=O)Nc2ccc4c(c2)OCO4)O3)cc1 (stereo not drawn) | 17% | -10%
CN(C)CCNC(=O)c1cccc(-c2cnc3c(NC=O)cc(-c4ccc(F)cc4)cn23)c1 | -28%[18.4 µM] | 2%
COc1ccc(C2=NOC(C)(c3nnc(Cc4ccccc4)o3)C2)cc1 (stereo not drawn) | 26% | 11%
CC(C)Nc1nc(NCCO)nc2ccccc12 | ? | -21%
CC[C@@H]1CC2=C(C(=O)OC(C)(C)O2)[C@H](c2ccc(Cl)cc2)O1 | 10% | -23%
CN(C)C=Nc1ccc([N+](=O)[O-])c2ccccc12 | -9% | -8%
CCCN(C(=O)c1cc(S(=O)(=O)N(C)c2ccccc2OC)ccc1C)C1CCS(=O)(=O)C1 (stereo not drawn) | -3% | 36%[activator]
O=C1NN=C2CCCCCCC12 (stereo not drawn) | -16% | -7%
CN(Cc1ccccc1)C(=O)c1csc([C@H]2C[C@H](O)[C@@H](CO)O2)n1 | -4%[18.4 µM] | -6%
O[C@H]1C[C@H](c2ccc(Cl)cc2)N(CC2CCCCC2)C[C@@H]1n1cc(C2CC2)nn1 | -8% | -16%
CCCCC[C@@H](C)N1C[C@@H](COCc2ccccc2)Oc2cc(N3CC[C@H](O)C3)ccc2S1(=O)=O | -8% | -3%
CCN(CC)CCCNc1cc(C)c(C#N)c2nc3ccccc3n12 | 5% | -12%
COc1ccccc1S(=O)(=O)N(C)C[C@@H]1OCc2cn(nn2)CCCC(=O)N([C@H](C)CO)C[C@H]1C | 2% | 5%
CCOC(=O)[C@]12CCCC=C1N(Cc1ccc3c(c1)OCO3)C(=O)[C@H](CC(=O)N1CCCCC1)C2 | -7% | -14%
O=C(NCc1ccccc1)[C@@H]1CCCN1C(=O)[C@@H]1CCCN1C(=O)c1cccc2ccccc12 | -6% | -21%
Cc1cc(F)ccc1NC(=O)c1ccc(NS(=O)(=O)c2cccs2)cc1 | -16% | -16%
C#CCN(C[C@@H]1[C@@H](OC(=O)NCc2ccc(OC)c(OC)c2)[C@@H](OC(=O)NCc2ccc(OC)c(OC)c2)Cn2c(=O)n(CCCCCC)c(=O)n21)S(=O)(=O)c1ccc(C)cc1 | 5% | 0%

Full records from above. Order of values: RE007 growth inh | StopGo reporter
Shown for `CN(C)C=Nc1ccc([N+](=O)[O-])c2ccccc12` → -9% | -8%
Shown for `CCCN(C(=O)c1cc(S(=O)(=O)N(C)c2ccccc2OC)ccc1C)C1CCS(=O)(=O)C1` (stereo not drawn) → -3% | 36%[activator]
Shown for `OC(c1ccccc1)(c1nc(-c2cccc(F)c2)cs1)C(F)(F)F` (stereo not drawn) → -1% | 17%
Shown for `O=C(NCc1ccccc1)[C@@H]1CCCN1C(=O)[C@@H]1CCCN1C(=O)c1cccc2ccccc12` → -6% | -21%
Shown for `O=C1NN=C2CCCCCCC12` (stereo not drawn) → -16% | -7%

Additional records follow:
SMILES | RE007 growth inh | StopGo reporter
CC(=O)Nc1c(-c2ccc(C)cc2)nc2ccc(Cl)cn12 | -5% | 3%
CC(=O)Nc1ccc(NC(=O)c2csc([C@@H]3C[C@H](O)[C@@H](CO)O3)n2)cc1 | -14%[18.4 µM] | -14%
COC(=O)c1ccc(C2=NOC(C)(c3nnc(-c4cccc(Cl)c4)o3)C2)cc1 (stereo not drawn) | -11% | 5%
O=C(CN1CCN(c2cccc(C(F)(F)F)c2)CC1)Nc1ccc2c(c1)OCCCO2 | -6% | -19%
C=C1C(O)C[C@@H](C(C)C)N(CC(C)C)S1(=O)=O (stereo partly drawn) | -11% | -21%
CCCCN(C=O)c1c(CC)nc2c(OCc3ccc(Cl)cc3)cccn12 | ? | -30%
CC(C)c1ccc(NC(=O)COC(=O)Cn2cnc3c2c(=O)n(C)c(=O)n3C)cc1 | 3% | -6%
COC(=O)C[C@@H]1C=C[C@@H](NC(=O)CN(C)C)[C@@H](CO)O1 | 3% | -10%
CC(C)C1C(=O)N(Cc2cn(CCC3OCCCO3)nn2)CCS(=O)(=O)N1Cc1ccc(-c2cccc(N(C)C)c2)cc1 (stereo not drawn) | 10% | -2%
O=c1onc(-c2ccccc2)c2ccccc12 | 19% | 3%
CC1(C(=O)NS(=O)(=O)c2cccs2)CCN1C(=O)CC1CC1 (stereo not drawn) | 16% | -4%
Cn1c(=O)c2cc(NC(=S)NCc3ccccc3F)ccc2n1Cc1ccccc1 | 13% | -18%
O=C1c2ccccc2C(c2nnnn2-c2ccc3c(c2)OCCO3)N1Cc1ccccc1 (stereo not drawn) | -5% | 10%
O=C(Cc1cccc(NC(=O)C2CCCN(C(=O)C3CCC3)C2)c1)Nc1cccc(C(=O)N2CCOCC2)c1 (stereo not drawn) | 4% | -11%
COc1ccc(CN2CCC[C@]3(N[C@H](c4ccccc4)[C@@H]4C(=O)N(C)C(=O)[C@@H]43)C2=O)cc1 | 1% | 0%
COc1cccc(Nc2nc(C(N)Cc3ccccc3)cs2)n1 (stereo not drawn) | 2% | -23%
CCc1nc2c(OCCOc3ccc(F)cc3)cccn2c1N(C)C(=O)c1ccc(C)cc1 | ? | -25%
COc1ccc(NC(=O)N2Cc3ccccc3-n3nncc3C2)cc1 | 1% | 0%
O=S(=O)(Nc1cccc(F)c1)c1ccc(S(=O)(=O)N2CCOCC2)cc1 | 4% | -23%
CC(C)C[C@@H](CN1CCC[C@@H]1CN1C(=S)NC[C@@H]1Cc1ccc(O)cc1)N1C[C@H](Cc2ccccc2)N(CCc2ccccc2)C1=S | 1% | 30%
CC1(C(=O)Nc2cccc(OC(F)(F)F)c2)Cc2c(-c3ccc(C(N)=O)cc3)ccnc2O1 (stereo not drawn) | 1% | ?
CC(C)n1nnnc1C1c2ccccc2C(=O)N1CCc1ccc(O)cc1 (stereo not drawn) | 0% | 1%
COc1ccc(-c2nc3c(Cl)cc(C(F)(F)F)cn3c2Cc2cccc(Cl)c2)cc1OC | 6% | -16%
CC(c1ccccc1)n1ccnc1CO (stereo not drawn) | 8% | 0%
C/C=C1\NC(=O)[C@H](C)NC(=O)[C@@H](NC(=O)[C@H](Cc2ccc(O)cc2)NC(=O)[C@@H](NC(=O)/C(C)=C/C)C(C)C)[C@@H](C)OC(=O)[C@H](CC(C)C)NC(=O)[C@@H](CCC(=O)O)NC1=O | 13% | -4%
O=c1n(Cc2ccccc2)c(O)c2n1Cc1ccccc1N=C2c1ccc(C(F)(F)F)cc1 | 11% | -9%
COc1cccc(C2CCN(C)C2)c1 (stereo not drawn) | -5% | -18%
C=C[C@]1(C)C[C@@H](OC(=O)CSCCN(CC)CC)[C@]2(C)C(C)CC[C@]3(CCC(=O)[C@H]32)[C@@H](C)[C@@H]1O (stereo partly drawn) | -9% | ?
CCCCNC(=O)c1nc(-c2cccs2)oc1-c1ccc(Cl)cc1 | 12% | -19%
C/C(COc1ccccc1)=N\NC(=O)c1nnn(-c2nonc2N)c1CSc1ccc(C)cc1 | 4% | -14%
CNc1cncc(-c2ccc(OCCCN(C)C)nc2)n1 | -26% | ?
CC1(C)OC(=O)C2=C(C[C@@H](C3CCCCC3)O[C@@H]2c2ccc(F)cc2)O1 | 18% | -24%
CC(C)NC(=O)C1(C)CN(S(C)(=O)=O)CC(=O)N1CC(F)(F)F (stereo not drawn) | 0% | -8%
COc1cc(C(=O)N(C)C2CCCCC2)cc(OC)c1OC | -8% | -6%
COc1ccc(CNC(=O)c2sc(=O)n(Cc3ccc(-c4ccccc4)cc3)c2C)cc1OC | -2%[18.4 µM] | 16µM*
CCOC(=O)[C@]12CCCC=C1N(Cc1ccco1)C(=O)[C@H](CC(=O)NCc1cccc3ccccc13)C2 | -12% | -21%
O=C(Nc1ncnc2c1ncn2[C@@H]1O[C@H](/C=C/C(=O)N2CCN(c3ccc(F)cc3)CC2)[C@@H](O)[C@H]1O)c1ccccc1 | 5% | -24%
OC[C@@H]1CN(Cc2ccco2)C[C@H](n2cnc3c(N4CCOCC4)ncnc32)O1 | 6% | -5%
COc1cccc(C(O)c2nc(-c3cccc(C(=O)O)c3)cs2)c1 (stereo not drawn) | 6% | 18%
COc1cccc(C(O)c2nc(-c3cc4ccccc4o3)cs2)c1 (stereo not drawn) | -1%[18.4 µM] | 9%
O=C(O)c1ccc(S(=O)(=O)N2CCCCCCC2)cc1 | 8% | -8%
CN(C)CCNC(=O)c1[nH]c(C(F)(F)F)nc1-c1ccccc1 | 9% | -14%
CC1=C(C(=O)Nc2cc(C(=O)NCc3ccccc3)ccc2C)SCCO1 | -8% | 4%
Cc1ccc(CSc2nnc(-c3ccccn3)n2Cc2cccs2)cc1 | -1% | -24%
CS(=O)(=O)N1CCCCC1c1cc(C(=O)Nc2cccc3c2CCCC3)no1 (stereo not drawn) | 4% | 11%
Cn1c(CCC(=O)Nc2ccc(S(C)(=O)=O)cc2)nc2cc(S(=O)(=O)N3CCOCC3)ccc21 | -8% | -17%
OC(c1ccc(Cl)cc1)c1ncc(-c2ccccc2Cl)[nH]1 (stereo not drawn) | ? | 91%[activator]
O=C(Nc1ccc2c(c1)OCCO2)C(c1ccccc1F)n1c(=O)c(-c2cc3ccccc3[nH]2)nc2ccccc21 (stereo not drawn) | 12% | -9%
CC(C)N(C)c1ncnc2c1ncn2[C@H]1CN(CCN2CCOCC2)C[C@@H](CO)O1 | -2% | -21%
COC(=O)[C@@]12C[C@@H](CC(=O)NCCC(C)C)C(=O)N(Cc3cccc4ccccc34)C1=CCC(C)(C)C2 | 10% | 2%
COCCCNC(=O)c1cc(S(=O)(=O)N2CCC3(CC2)OCCO3)ccc1F | -9% | -11%
NC(Cc1ccccc1)c1csc(Nc2nccc(C(F)(F)F)n2)n1 (stereo not drawn) | -17%[18.4 µM] | -17%

Molecules from the list above that have a nitro group on carbon, in the order listed:
SMILES | RE007 growth inh | StopGo reporter
Cc1cc(N2CCN(C(=O)Oc3ccc([N+](=O)[O-])cc3)CC2)c2ccccc2n1 | ? | 25µM*
CN(C)C=Nc1ccc([N+](=O)[O-])c2ccccc12 | -9% | -8%

Not all compounds are listed; rates above refer to the full screens.
